Screening data deposited in PubChem BioAssay by National Center for Advancing Translational Sciences (NCATS).
GAA glycogen – alters human alpha-glucosidase cleavage of glycogen; P10253; recombinant GAA, glycogen substrate, Amplex Red glucose oxidase fluorescence; Potency, µM (doses to about 76.4 µM), for the others: at the highest dose activity change, negative = inhibition, actives largely listed as inhibitors; 300,000 compounds, 0.38% hits;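 note: 0% = full enzyme reaction and -100% = no-enzyme basal signal; the screen sought inhibitors and activators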
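Natural-substrate format: glycogen cleavage by 4 nM human enzyme, glucose read by Amplex Red coupling (Ex 573, Em 610 nm). Normalized to enzyme and no-enzyme controls.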
GLA spleen mod – inhibitors or activators of human alpha-galactosidase in spleen homogenate | P06280 | human spleen homogenate, 4MU-alpha-Gal fluorescence, 40 min | Potency, µM (top dose mostly 80 µM), inactives show top-dose activity change, negative = inhibition, hits mostly inhibitors | 240,000 compounds, 0.008% hits;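 note: 0% = enzyme with vehicle and -100% = no enzyme basal signal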
Target sequence (P06280 32-429 limits assumed): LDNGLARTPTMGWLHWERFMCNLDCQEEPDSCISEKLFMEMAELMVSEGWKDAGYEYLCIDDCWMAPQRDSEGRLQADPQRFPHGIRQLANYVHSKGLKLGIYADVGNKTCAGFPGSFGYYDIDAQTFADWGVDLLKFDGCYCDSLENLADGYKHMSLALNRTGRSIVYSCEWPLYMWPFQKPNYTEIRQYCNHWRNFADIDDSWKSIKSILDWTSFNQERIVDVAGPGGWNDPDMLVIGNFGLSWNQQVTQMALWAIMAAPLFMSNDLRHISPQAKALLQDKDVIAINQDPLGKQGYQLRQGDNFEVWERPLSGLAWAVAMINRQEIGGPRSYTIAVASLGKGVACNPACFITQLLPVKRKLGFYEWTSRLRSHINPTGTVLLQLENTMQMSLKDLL
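Human spleen homogenate (1 ug) was the enzyme source, with 4-methylumbelliferyl-alpha-D-galactopyranoside (1 mM final) in pH 5.0 citrate buffer with 0.01% Tween-20. Compounds were titrated; after 40 min at 37C, NaOH/glycine stop, 4-MU fluorescence read; AC50 from Hill fits.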
GAA inhib – inhibitors of human lysosomal alpha-glucosidase. P10253. purified human GAA, 4-MU-alpha-glucoside fluorescence. Potency, µM (highest dose often 76.9 µM), for inactives: at the highest dose activity change, negative = inhibition, actives largely listed as inhibitors. 200,000 compounds, 0.005% hits. AID 1466;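 note: plate controls were uninhibited enzyme wells for no effect and no-enzyme background for full effect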
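Enzyme (4 nM final) mixed with compound (up to 77 uM), then 4-MU-alpha-D-pyranoside (400 uM final) added; 20 min at room temperature, pH 5.0. Reaction stopped at pH 10, fluorescence read, AC50 derived by Hill fit.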
aGlu spleen mod – inhibits or activates alpha-glucosidase in human spleen homogenate; Potency, µM (doses to about 79.9 µM), without a hit: at the highest dose activity change, negative = inhibition, hits mostly inhibitors; 240,000 compounds, 0.006% hits; human spleen homogenate, 4-MU-alpha-glucoside fluorescence;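 note: 0% = enzyme with vehicle and -100% = no enzyme basal signal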
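Enzyme source: human spleen homogenate, 1 ug/well. Buffer 50 mM citric acid/K phosphate pH 5.0, 0.01% Tween-20. 4-MU-alpha-glucoside 1 mM; 37 C x 40 min; NaOH/glycine stop; fluorescence.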
* = called active by the depositor; ? = inconclusive; . = not tested or not shown; & = joins results of further samples; [ ] = another dose, or the depositor's remark. Calls come from the whole dose curve; as a rule, active = well fitted curve in the direction sought with a large enough effect; inconclusive = small, poorly fitted or top-dose-only effect, or another doubt; inactive = no such curve, though single readings can be large; an effect the other way counts as inactive or inconclusive. Potency is the fitted concentration of half-maximal effect.

Sample of the layout (4 entries):
SMILES	GAA glycogen	GLA spleen mod	GAA inhib	aGlu spleen mod
CCC(C)(C)C(=O)OC1CC(C)C=C2C=CC(C)C(CCC3CC(O)CC(=O)O3)C21 (configuration not stated)	.	-1%	.	0%
COc1ccc2c3c1O[C@H]1C[C@@H](O)C=C[C@@]31CCN(C)C2	-1%	2%&2%&2%	-1%[15.4 µM]	2%&12%&-3%
O=c1c(O)c(-c2cc(O)c(O)c(O)c2)oc2cc(O)cc(O)c12	.	-6%	.	-6%
CC(N)(Cc1ccc(O)cc1)C(=O)O (configuration not stated)	.	-11%	.	3%

The whole of this part, from the start:
SMILES	GAA glycogen	GLA spleen mod	GAA inhib	aGlu spleen mod
CCC(C)(C)C(=O)OC1CC(C)C=C2C=CC(C)C(CCC3CC(O)CC(=O)O3)C21 (configuration not stated)	.	-1%	.	0%
COc1ccc2c3c1O[C@H]1C[C@@H](O)C=C[C@@]31CCN(C)C2	-1%	2%&2%&2%	-1%[15.4 µM]	2%&12%&-3%
O=c1c(O)c(-c2cc(O)c(O)c(O)c2)oc2cc(O)cc(O)c12	.	-6%	.	-6%
CC(N)(Cc1ccc(O)cc1)C(=O)O (configuration not stated)	.	-11%	.	3%
CC(=O)OCC(=O)[C@@]12OC(C)(C)OC1CC1C3CC(F)C4=CC(=O)C=C[C@@]4(C)[C@@]3(F)C(O)C[C@]12C (some centres not stated)	.	5%	.	-11%
C[C@H]1[C@H](NC(=O)/C(=N/OC(C)(C)C(=O)O)c2csc(N)n2)C(=O)N1S(=O)(=O)O (stereo in doubt)	.	-1%[29.1 µM]	.	-3%[29.1 µM]
CC1=C(\C=C/C(C)=C/C=C\C(C)=C\C(=O)O)C(C)(C)CCC1	.	-1%	.	-3%
CC[C@]1(C)CC(=O)NC1=O	.	2%[29.1 µM]	.	-1%[29.1 µM]
CC(C)(C(=O)O)c1ccc(C(O)CCCN2CCC(C(O)(c3ccccc3)c3ccccc3)CC2)cc1 (configuration not stated)	-4%[76.3 µM]	3%&-4%&7%	.	2%&-7%&-13%
COC(=O)[C@@H]1[C@H]2C[C@H]3c4[nH]c5ccccc5c4CCN3C[C@@H]2CC[C@@H]1O	1%[76.3 µM]	14%	.	8%
CC(C)(C)CC(C)(C)c1ccc(OCCOCC[N+](C)(C)Cc2ccccc2)cc1	.	2%	.	2%
O=C1N=C(O)CN1/N=C\c1ccc(-c2ccc([N+](=O)[O-])cc2)o1	.	-5%	.	1%
CC[C@H](C)[C@H]1O[C@]2(CC[C@@H]1C)C[C@@H]1C[C@@H](C/C=C(\C)[C@H](O[C@@H]3C[C@H](OC)[C@H](O[C@@H]4C[C@H](OC)[C@@H](O)[C@H](C)O4)[C@H](C)O3)[C@@H](C)/C=C/C=C3\CO[C@@H]4[C@H](O)C(C)=C[C@@H](C(=O)O1)[C@]34O)O2	.	4%	.	1%
CCN(CC)C(=O)N1CCN(C)CC1	5%	13%	-3%[15.4 µM]	5%
Cc1ccc(Cl)cc1NC(=O)c1cc2ccccc2cc1O	-11%	11%	-15%	2%
Cn1c(=O)c(NCCO)c2c3c(cccc31)C(=O)c1ccccc1-2	-4%	7%	-10%	-6%
Cn1c(=O)c2c(ncn2C)n(C)c1=O	-5%	-1%&-1%&2%&22%&2%&-3%&13%	.	-4%&10%&-7%&-8%&-5%&-5%&10%
CC(C)(C)NC[C@H](O)c1ccc(O)c(CO)c1	.	-1%	.	-4%
C[C@H](C(=O)O)c1cccc(C(=O)c2ccccc2)c1	.	-2%&3%	.	-1%&9%
Cc1cn([C@H]2C[C@H](N=[N+]=[N-])[C@@H](CO)O2)c(=O)[nH]c1=O	1%	2%&1%	3%[15.4 µM]	-9%&-2%
CC1CC2C3CCC4=CC(=O)C=C[C@@]4(C)[C@]3(F)C(O)C[C@]2(C)[C@]1(O)C(=O)CO (some centres not stated)	.	1%&6%	.	-4%&2%
CC1(C)SC2C(NC(=O)C(N)c3ccccc3)C(=O)N2C1C(=O)O (configuration not stated)	.	-5%	.	-7%
Cc1ncc([N+](=O)[O-])n1CCO	0%&-4%	-1%	2%&-3%[15.4 µM]	-4%
N=C(N)c1ccc(OCCCCCOc2ccc(C(=N)N)cc2)cc1	4%	-19%	7%[15.4 µM]	-16%

Six compounds from above, sorted by number of heavy atoms, highest first:
SMILES	GAA glycogen	GLA spleen mod	GAA inhib	aGlu spleen mod
CC[C@H](C)[C@H]1O[C@]2(CC[C@@H]1C)C[C@@H]1C[C@@H](C/C=C(\C)[C@H](O[C@@H]3C[C@H](OC)[C@H](O[C@@H]4C[C@H](OC)[C@@H](O)[C@H](C)O4)[C@H](C)O3)[C@@H](C)/C=C/C=C3\CO[C@@H]4[C@H](O)C(C)=C[C@@H](C(=O)O1)[C@]34O)O2	.	4%	.	1%
N=C(N)c1ccc(OCCCCCOc2ccc(C(=N)N)cc2)cc1	4%	-19%	7%[15.4 µM]	-16%
Cn1c(=O)c(NCCO)c2c3c(cccc31)C(=O)c1ccccc1-2	-4%	7%	-10%	-6%
Cc1ccc(Cl)cc1NC(=O)c1cc2ccccc2cc1O	-11%	11%	-15%	2%
C[C@H](C(=O)O)c1cccc(C(=O)c2ccccc2)c1	.	-2%&3%	.	-1%&9%
CCN(CC)C(=O)N1CCN(C)CC1	5%	13%	-3%[15.4 µM]	5%

Additional structures
SMILES	GAA glycogen	GLA spleen mod	GAA inhib	aGlu spleen mod
CC(C)(N=NC(C)(C)C(=N)N)C(=N)N	.	0%	.	20%
O=C(O)CCc1nc(-c2ccccc2)c(-c2ccccc2)o1	4%	-1%	-6%[15.4 µM]	-7%
C=C1c2c(Cl)ccc(O)c2C(O)=C2C(=O)[C@@]3(O)C(O)=C(C(N)=O)C(=O)[C@@H](N(C)C)[C@@H]3[C@@H](O)[C@H]12	.	-8%[29.1 µM]	.	-2%[29.1 µM]
Nc1ncnc2nc(-c3ccc(N4CCOCC4)nc3)cc(-c3cccc(Br)c3)c12	.	10%	.	-22%
CO/N=C1\CN(c2nc3c(cc2F)c(=O)c(C(=O)O)cn3C2CC2)CC1CN (configuration not stated)	.	17%	.	7%
O=C(O)c1cc(-c2ccccc2)nc2ccccc12	-2%&2%	3%&1%	-13%&5%[15.4 µM]	-5%&-2%
Nc1ccn([C@@H]2O[C@H](CO)[C@@H](O)C2O)c(=O)n1 (some centres not stated)	-4%	8%&0%	-3%[15.4 µM]	-4%&2%
COC(=O)[C@H]1[C@H]2CC3c4[nH]c5ccccc5c4CCN3C[C@@H]2CC[C@@H]1O (some centres not stated)	.	-3%&12%	.	0%&0%
NC(=O)c1cc[n+](CC2=C(C(=O)[O-])N3C(=O)[C@@H](NC(=O)Cc4cccs4)[C@@H]3SC2)cc1	.	-10%[29.1 µM]	.	3%[29.1 µM]
CC1=C(/C=C/C(C)=C/C=C/C(C)=C/C(=O)O)C(C)(C)CCC1	-1%	-9%&7%&-3%&6%&6%	-10%[15.4 µM]	2%&12%&-8%&1%&6%
C/C=C1/NN(CCCN2CCN(c3cccc(Cl)c3)CC2)C(=O)N1CCOc1ccccc1	.	-2%	.	3%
CCCC(=O)Nc1ccc(OCC(O)CNC(C)C)c(C(C)=O)c1 (configuration not stated)	6%	9%&10%	3%[15.4 µM]	-3%&5%
O=c1c(-c2ccc(O)cc2)coc2cc(O)ccc12	.	2%&8%&-9%&1%&11%&-4%&3%	.	-2%&-7%&-1%&-4%&6%&5%&-3%
CCN1CCCC1CNC(=O)c1cc(S(N)(=O)=O)ccc1OC (configuration not stated)	.	-10%&-4%&-8%	.	3%&-6%&0%
O=c1[nH]cnc2c1ncn2[C@H]1CC[C@@H](CO)O1	5%	5%&-9%&-2%	2%[15.4 µM]	3%&-7%&1%
CC(C)(C#N)c1cc(Cn2cncn2)cc(C(C)(C)C#N)c1	3%	-17%	-5%[15.4 µM]	-6%
C[C@@H]1[C@H](O)[C@@H](C)/C=C/C=C/C=C/C=C/C=C/C=C/C=C/[C@H](O[C@@H]2O[C@H](C)[C@@H](O)[C@H](N)[C@@H]2O)C[C@@H]2O[C@](O)(C[C@@H](O)C[C@@H](O)[C@H](O)CC[C@@H](O)C[C@@H](O)CC(=O)O[C@H]1C)C[C@H](O)[C@H]2C(=O)O	.	5%	.	-4%
CN/C(=C/[N+](=O)[O-])NCCSCc1ccc(CN(C)C)o1	1%	9%	-1%[15.4 µM]	3%
CC[C@@H](C)[C@H]1O[C@]2(CC[C@@H]1C)C[C@@H]1C[C@H](C/C=C(/C)[C@H](O[C@@H]3C[C@H](OC)[C@H](O[C@@H]4C[C@H](OC)[C@@H](O)[C@H](C)O4)[C@H](C)O3)[C@@H](C)/C=C\C=C3CO[C@@H]4[C@H](O)C(C)=C[C@@H](C(=O)O1)[C@]34O)O2 (tested in a mixture with another compound)	.	5%	.	13%
Oc1ccc2ccccc2c1C=NC12CN3CCN(CN(C3)C1)C2	13%	-13%	-3%	-6%
CC1(C)S[C@@H]2[C@H](NC(=O)[C@H](N)c3ccccc3)C(=O)N2[C@H]1C(=O)O	0%&3%	?	-1%&1%[15.4 µM]	3%&6%&-8%&17%
CC(=O)OCC(=O)[C@@]1(O)CC[C@H]2[C@@H]3CCC4=CC(=O)CC[C@]4(C)[C@@H]3C(=O)C[C@@]21C	.	1%	.	11%
NC(=O)c1cccnc1	-1%	5%&3%&-2%	1%[15.4 µM]	5%&5%&1%
O=C(O)c1cc(=O)c2c(OCC(O)COc3cccc4oc(C(=O)O)cc(=O)c34)cccc2o1	4%	-4%	2%[15.4 µM]	1%
C#C[C@@]1(OC(C)=O)CC[C@@H]2[C@@H]3CCC4=C[C@@H](OC(C)=O)CC[C@H]4[C@H]3CC[C@]21C	.	5%[29.1 µM]	.	8%[29.1 µM]
CC[N+](C)(C)c1cccc(O)c1	5%	10%	-8%[15.4 µM]	3%
O=C(Nc1ccc([N+](=O)[O-])cc1Cl)c1cc(Cl)ccc1O	.	-27%	.	-3%
NC(=O)N1c2ccccc2C=Cc2ccccc21	6%	-19%	1%[15.4 µM]	-7%
CN1C2CC(OC(=O)C(CO)c3ccccc3)CC1C1OC12 (configuration not stated)	-11%[76.3 µM]	-9%	.	10%
Cc1cn(C2CC(N=[N+]=[N-])C(CO)O2)c(=O)[nH]c1=O (configuration not stated)	.	7%	.	-12%

The list is partial; count on the stated rates, not on these rows.
